MT1-MMP act inh = blocks activation of human MT1-MMP; GFP/RFP ratio change, % at 20 µM; AID 651647; HT1080 RFP-PRO-GFP cells, GFP/RFP ratio fluorescence, overnight; percent of plate control window, DMSO zero; 0.061% of 360,000 active;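 active = GFP/RFP ratio change of at least 30% with cell ATP level not reduced by more than half and red fluorescence within 50% of control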; note: strong numbers were not always called active
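Test system: HT1080 cells expressing an RFP-PRO-GFP fluorescent reporter construct / Compound dosing: single-point 20 µM compound, 1% DMSO / Schedule: cells overnight before dosing, compound overnight, 37 °C, 5% CO2 / Evaluation: GFP/RFP fluorescence ratio / Control set: DMSO and RFP-L50D-GFP cell wells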
eIF4H FP inh = inhibitors of RNA binding by human eIF4H; Q15056; eIF4H fluorescence polarization binding assay; inhibition, % at 35 µM; 0.94% of 290,000 active;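 active = 50% or more with normal probe brightness, or confirmed in later tests; inconclusive = above 50% with abnormal brightness, or retests that disagree; inactive = below 50% or failed in later tests; about a fifth of its hits are not listed in these tables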;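 note: calls also rest on retests at 20 µM and on dose response follow-up; 0% = protein and probe with vehicle and 100% = probe without protein; strong numbers were not always called active; many hits fall short of the cut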
Rce1 inh = blocks yeast Ras-converting enzyme. yeast membranes, quenched prenylated peptide cleavage fluorescence. calls only. Q03530. AID 2563. 0.27% of 290,000 active;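 active = fall in fluorescence gain of 50% or more versus controls, with final raw signal at or below 3038400; inconclusive = same 50% fall but final raw signal above 3038400; inactive = fall in fluorescence gain under 50%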;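 note: plate controls were neutral control wells for no effect and wells lacking membranes for full effect; tested at 10 µM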
Target sequence (Q03530 whole entry, looked up): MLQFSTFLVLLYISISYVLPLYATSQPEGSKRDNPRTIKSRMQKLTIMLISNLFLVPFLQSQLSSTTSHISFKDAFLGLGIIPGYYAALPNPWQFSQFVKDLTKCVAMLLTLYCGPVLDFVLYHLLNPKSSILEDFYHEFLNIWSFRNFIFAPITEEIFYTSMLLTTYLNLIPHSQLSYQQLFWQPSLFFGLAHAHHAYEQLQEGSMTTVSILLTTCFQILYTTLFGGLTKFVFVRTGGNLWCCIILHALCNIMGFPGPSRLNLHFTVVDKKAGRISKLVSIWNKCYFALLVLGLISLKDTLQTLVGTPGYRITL
Yeast UUG start = alters start codon recognition fidelity in yeast | S. cerevisiae UUG-firefly luciferase reporter, luminescence/redox ratio | activity score, % at 18.7 µM | 0.13% of 350,000 active;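 active = replicate mean at a twofold rise or more, about +100% in these data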;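 note: firefly luciferase made from a UUG start codon reports start codon fidelity; reporter light over untreated wells divided by growth signal over untreated wells; some hits fall short of that in this replicate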
CSC inhib = cancer stem cell inhibition; cancer stem cell-like cells viability, luminescence; AID 2717; inhibition, % at 7.5 µM; 1.1% of 300,000 active;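 active = mean at 75% or more and at least half the replicates too; inconclusive = mean and replicates disagree; tested in HMLE shEcad cells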;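 note: 0% = median of negative and 100% = median of positive control wells; the first replicate is given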
PABP polyA inh = blocks human PABP binding to poly(A) RNA; P11940; fluorescence polarization; inhibition, % at 35 µM; 1% of 290,000 active;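 active = 50% or more with normal probe brightness, or confirmed in later tests; inconclusive = above 50% with abnormal brightness, or retests that disagree; inactive = below 50% or failed in later tests; about a fifth of its hits are not listed in these tables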;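 note: calls also rest on retests at 20 µM and on dose response follow-up; controls were probe without protein and protein plus probe with vehicle; some compounds called inactive have numbers as strong as hits; many hits fall short of the cut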
Env fusion inh = inhibitors of HIV Env-mediated cell fusion; inhibition, % at 12.3 µM; HeLa-JRFL Env/CEM21 cell fusion, luciferase; 1.1% of 360,000 active;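 active = mean replicate inhibition score of at least 50 and every replicate individually at or above 50; inconclusive = only one of the two criteria met; inactive = mean below 50 and not all replicates reaching 50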;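 note: 0% = plate neutral controls and 100% = maraviroc near 300 nM; one replicate is shown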
MT1-MMP act inh RFP = second read-out of MT1-MMP act inh, no call of its own (marks repeat the call); RFP signal change, %; measured here: RFP expression control read;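 0 = vehicle wells; hits needed this value within 50% of zero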
Active calls of the source: *; i = inactive; ? = inconclusive; . = not tested or not shown.

canonical_smiles	MT1-MMP act inh	MT1-MMP act inh RFP	eIF4H FP inh	Rce1 inh	Yeast UUG start	CSC inhib	PABP polyA inh	Env fusion inh
CCOc1nc(N(C)C)nc(-n2nnc(C(C)=O)c2C)n1	-6	0	2	i	-11	-12	2	.
COc1cccc(N(C(=O)c2snc(C(N)=O)c2N)C(C(=O)NCC2CCCO2)c2cccs2)c1 (stereo unspecified)	0	0	3	i	-12	-7	-1	15
COc1ccc(C(=O)N2CCC2(C)C(=O)NC(C)C)cc1OC (stereo unspecified)	-1	2	.	.	-18	.	.	0
CC(C)c1cc2cc3ccc(=O)oc3cc2o1	0	-3	2	i	-17	-3	-6	-58
O=C(CCc1nnc(C2(c3ccc(Cl)cc3)CCC2)o1)N1CCCC1	-2	1	-4	i	-6	-10	-7	-44
COc1ccc(CC(=O)Nc2cccc(C(=O)Nc3ccccc3C(=O)O)c2)cc1OC	2	2	-2	i	-10	-7	2	23
Cc1ccc(C)c(C(=O)CC2(O)C(=O)N(C)c3ccccc32)c1 (stereo unspecified)	4	5	-8	i	2	-5	-6	.
CCOC(=O)C[C@H]1c2ccc(C(F)(F)F)cc2S(=O)(=O)N1c1ccccc1	5	-1	.	i	-7	-5	.	-3
O=C(CCCN1CCOCC1)c1ccc2c(c1)OCCO2	5	3	10	i	-16	-15	-6	.
COc1ccc(Cl)cc1NC(=O)CN1CCc2ccccc2C1	-1	-11	-1	i	-6	-7	-10	-14
COc1cccc(Cl)c1NC(=O)N1CCN(c2cc(C)nc3ccccc23)CC1	8	-1	1	i	13	15	-9	5
N#Cc1ccccc1OCC(=O)OCC(=O)NC1CCCCC1	5	2	.	.	-22	.	.	-15
Cc1ccc(N(C(=O)c2csnn2)C(C(=O)NC2CCCCC2)c2cccnc2)cc1C (stereo unspecified)	-3	-2	9	i	-7	5	-2	6
CCCC1=Nc2cc(C(=O)NCCN3CCCC3)ccc2Sc2ccccc21	-6	-7	-30	i	-8	-6	-16	1
O=C(Cc1cc(C(=O)O)c2ccccc2n1)Nc1ccccc1	-3	-2	4	i	-15	9	15	11
Brc1ccc(Oc2ncc(CN3CCN(c4ccccc4)CC3)s2)cc1	5	-5	-4	i	-13	6	5	?
Nc1cc(=O)n(Cc2ccccc2)c(=O)n1-c1ccc(F)cc1	1	2	-8	i	.	-4	0	13
COCc1cc(C)nc(Nc2ccc(C)cc2C)c1C#N	1	4	-3	i	-33	24	5	.
Cn1nc(CC(=O)NC2CCCCCC2)c2ccccc2c1=O	-2	-22	1	i	-35	-11	-4	18
CC(=O)CS(=O)(=O)c1ccc(Oc2ccc(S(=O)(=O)CC(C)=O)cc2)cc1	-1	-2	22	i	-12	-18	-4	.
COCCNc1nc(Nc2ccc(C#N)cc2)c2sccc2n1	1	-5	.	.	-15	.	.	8
Cc1c(N=C2SC(CC(=O)Nc3ccccc3)C(=O)N2CCN2CCOCC2)c(=O)n(-c2ccccc2)n1C (stereo unspecified)	1	0	-13	i	.	-13	0	-9
Cc1cc(-c2ccccc2)nc(Oc2cccc(C(F)(F)F)c2)c1S(C)(=O)=O	-8	-10	-9	i	5	-8	4	.
COc1ccc(C)cc1NC(=O)CSc1nc2ccccc2nc1N1CC(C)OC(C)C1 (stereo unspecified)	-13	-6	11	i	11	15	-4	.
CC1CCC(NC(=O)C2CCN(c3cnccn3)CC2)CC1 (stereo unspecified)	-1	1	7	i	.	0	15	-46
COCCn1c(SCC(=O)NC2CC2)nnc1-c1ccco1	0	0	-9	i	-6	13	-7	11
Cc1nn(C)c(C)c1S(=O)(=O)N1CCc2ccccc21	0	5	-6	i	-11	-19	-14	.
O=C(CC1C(=O)NCCN1Cc1ccc(F)cc1)NCCOc1cccnc1 (stereo unspecified)	-4	2	2	i	.	-2	9	2
Cc1ccccc1NC(=O)Cc1nc(COC(=O)c2ccc(NC(N)=O)cc2)cs1	-4	4	.	.	-5	10	.	-9
COc1ccc(CNC(=O)C/C(C)=N/NC(=O)COc2ccc(Br)cc2)cc1	5	4	-13	i	-8	.	2	-7
CSc1ccccc1NC(=O)CN(C)CC(=O)NCc1ccccc1	1	2	-2	i	.	-6	3	-38
COc1ccc(C2NC(=O)c3ccccc3O2)c(OC)c1OC (stereo unspecified)	1	4	-14	i	-9	-12	1	-29
Cc1ccc(C(=O)COC(=O)CCC(=O)NC2CCCCC2)cc1C	2	3	3	i	-21	-20	-8	-70
CCOc1cc(C2c3c(oc4ccccc4c3=O)C(=O)N2c2nccs2)ccc1O (stereo unspecified)	-6	-2	0	i	.	6	-15	-4
COCCN(CCOC)Cc1cc(=O)oc2cc(C)ccc12	4	7	.	.	6	.	.	-46
COC(=O)CN(n1cnnc1)S(=O)(=O)c1ccc(C)cc1	-4	0	-7	i	16	-4	5	.
COc1ccc(Nc2ncc(C(=O)N3CCN(Cc4ccccc4)CC3)c3ccccc23)cc1	8	-6	11	i	-10	-9	12	-17
CC1=C(C)CC(C(=O)N2CCN(Cc3ccccc3)CC2)C(C(=O)O)C1 (stereo unspecified)	0	5	11	.	-22	0	16	-34
O=C(c1cc(-n2cnnc2)ccc1Cl)N1CCN(c2nc(-c3ccccc3)cs2)CC1	0	-22	1	i	-13	-14	-1	.
CCn1nc(C)c(NS(=O)(=O)c2ccccc2)c1C	2	-1	-7	i	-12	-6	-2	.
COc1cccc(NC(=O)C(=O)NCCCn2ccnc2)c1	-2	4	-2	i	.	-26	-5	-30
O=C(O)c1ccc2c(=O)n(Cc3ccccc3)c(SCc3ccc([N+](=O)[O-])cc3)nc2c1	7	3	6	i	-11	17	10	14
O=C1CN(C(=O)CCCc2c[nH]c3ccccc23)c2ccccc2N1	0	2	-8	i	-10	.	-1	-48
Cc1cc(C)cc(OCC(=O)OCC(=O)NC2CCCC2)c1	0	1	.	.	-3	8	.	.
CCOC(=O)c1[nH]c2cc3c(cc2c1NC(=O)CN1CC(C)CC(C)C1)OCO3 (stereo unspecified)	2	-2	1	i	-5	-11	-3	.
Brc1ccc(OCc2nc3ccccc3[nH]2)cc1	1	-1	5	i	-23	.	8	-65
CCOc1ccc(NS(=O)(=O)c2ccc(OCC(=O)N3CCCC3)cc2)cc1	2	-4	-3	i	-5	-7	-9	.
CCN1CCN(c2ccc(S(=O)(=O)N3CCOCC3)cc2NC(=O)CC(C)C)CC1	0	1	.	.	-5	6	.	3
CCOc1ncccc1C(=O)Nc1ccc2c(c1)OCCO2	-3	-1	.	.	-13	-13	.	-5
O=C(COC(=O)COc1cccc(Br)c1)NCc1ccc2c(c1)OCO2	-1	1	.	.	-21	2	.	-3
CCCn1nnnc1NC(=O)COc1ccc(Cl)c(C)c1	1	4	-3	i	-16	20	5	7
COc1cccc(C(=O)NCCS(=O)(=O)N2CCCCCC2)c1	2	2	.	i	-7	-6	.	9
Cc1ccc(NC(=O)CCc2nnc3ccc(NCc4ccco4)nn23)cc1F	-2	-1	12	i	-2	-5	3	-9
Cc1ccc(S(=O)(=O)CCC(=O)Nc2nnc(-c3ccc(F)cc3)o2)cc1	-4	-1	.	i	-2	3	.	14
O=C(NCc1ccc(Cl)cc1)C1CCN(S(=O)(=O)c2cccc3nonc23)CC1	-2	-2	-6	i	-13	.	-8	8
Cc1ccc(N=C2NC(=O)c3cc([N+](=O)[O-])ccc32)cc1	1	-17	8	i	-5	-13	3	-33
O=C(NCc1ccc(Cl)cc1)c1cnccn1	-4	-5	-7	.	3	1	-1	3
CCOC(=O)c1cccc(-n2c(C)cc(C=O)c2C)c1	-3	1	-2	i	.	3	0	.
Oc1ccc(C=NNC(=S)Nc2ccc(F)cc2)c(O)c1	1	1	.	.	-38	.	.	-32
CCc1nc2c(OCc3cccc(Cl)c3)cccn2c1N(C)C(=O)c1ccncc1	0	-3	.	.	0	.	.	14

Further entries
canonical_smiles	MT1-MMP act inh	MT1-MMP act inh RFP	eIF4H FP inh	Rce1 inh	Yeast UUG start	CSC inhib	PABP polyA inh	Env fusion inh
CCN1C(=O)[C@@H]2[C@@H](c3ccc(-c4ccc(F)cc4)cc3)N3CCCC[C@@]3(C(=O)OC)[C@@H]2C1=O	1	-6	.	i	-5	22	.	-3
CC(=O)c1c(C)cc(C)c(CSc2nc(C)cc(=O)[nH]2)c1C	4	5	-13	i	-16	4	-8	.
O=C(NCC1CCCO1)/C(=C\c1cccs1)NC(=O)c1ccccc1 (stereo unspecified)	-3	-2	-3	i	-13	-6	0	-1
Cc1ccc2cc(S(=O)(=O)NCCC(=O)O)ccc2c1	2	1	-5	i	-12	8	47	-47
COc1ccc(N=C2CCCN2CC(N)=O)cc1	7	5	1	i	-17	3	0	.
Cc1c(C(=O)N(CCO)Cc2ccccc2)oc2c(F)cccc12	-2	-2	0	i	-7	20	-3	-66
O=C1C=C(c2cccs2)CC(c2cccs2)C1n1cnc([N+](=O)[O-])c1 (stereo unspecified)	-1	0	-7	i	-18	13	9	.
CCOc1ccc(C(=O)Nc2ccccc2-c2ccccc2)cc1Cl	6	-9	-8	i	-3	20	5	-48
COc1cc2nc(NC(=O)c3ccc(F)cc3Cl)sc(=O)c2cc1OC	1	0	-8	i	-8	-3	-2	.
CCOC(=O)N1CCN(Cc2nc(CC3CC3)no2)CC1	-6	1	-4	i	.	-11	2	44
COC(=O)CCN1CCc2cc(N=Nc3ccc([N+](=O)[O-])cc3)ccc21	13	-3	-9	i	-10	41	-7	-62
Cc1c(C(=O)NCCc2ccccc2)oc2ccccc12	-5	-5	-2	i	-49	-1	9	-138
CN(c1ccc(C(=O)NCCSCc2ccco2)cc1)S(C)(=O)=O	-3	0	-6	i	-10	-4	-11	.
NNC(=O)c1ccc2nc(-c3ccc(Br)cc3)cn2c1	-26	-11	-5	i	.	38	-2	-44
CN(C)c1ncc(S(=O)(=O)c2ccccc2)c(-c2ccccc2Cl)n1	-3	1	0	i	-10	5	1	-10
O=S(=O)(Nc1nc2ccccc2s1)c1ccc(Br)s1	-2	6	4	i	12	32	4	.
COc1ccc(C(=O)CSc2nccn2C)cc1	-3	-2	7	i	-27	7	2	-8
COc1ccc([C@H]2CC(=O)C=C(c3ccc(Oc4ccccc4)cc3)C2)cc1OC	4	-26	.	.	-9	4	.	26
O=C1CC(N2CCN(c3ccc(F)cc3)CC2)C(=O)N1Cc1ccccc1 (stereo unspecified)	1	0	-2	i	-23	-21	1	-16
COc1cc(CNc2ccc(O)cc2)cc(Br)c1OCc1ccccc1	19	10	7	i	.	59	7	-1
CCn1c(=NC(=O)c2ccc(N3C(=O)CCC3=O)cc2)sc2c(OC)ccc(OC)c21	5	0	.	i	-25	2	.	50
COc1ccc2c(c1)c1nnc(SCC(=O)NC3CC3)nc1n2C	-8	1	-9	i	-14	.	4	-6

2 entries drawn at random from the list so far:
canonical_smiles	MT1-MMP act inh	MT1-MMP act inh RFP	eIF4H FP inh	Rce1 inh	Yeast UUG start	CSC inhib	PABP polyA inh	Env fusion inh
COc1cc(CNc2ccc(O)cc2)cc(Br)c1OCc1ccccc1	19	10	7	i	.	59	7	-1
Cc1c(C(=O)N(CCO)Cc2ccccc2)oc2c(F)cccc12	-2	-2	0	i	-7	20	-3	-66

Bioassay records (PubChem)
